Calb FLC: affects C. albicans growth with fluconazole. C. albicans CaCi-2 (fluconazole-resistant clinical isolate) + fluconazole, Alamar Blue growth, 48 h. AID 1979. 300,000 compounds, 0.57% hits. growth inhibition, % (no concentration beside the values);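 active means most replicates above 75%; inconclusive means exactly half above 75%; inactive means most below 75%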;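 further: all wells also contain fluconazole at 8 µg/ml as a sub-toxic cotreatment; 0% = median of DMSO wells and 100% = median of geldanamycin control wells; wells of about 8 µL received 7.5 nL stock; the first replicate is given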
Beta cell apopt: blocks beta cell apoptosis. INS-1E cytokine-induced death, ATP luminescence, 48 h; percent of positive-control rescue, neutral wells zero. protection from apoptosis, % (no concentration beside the values). 300,000 compounds, 0.8% hits;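 active means all replicates at 75% or more, or half of them and the mean; inconclusive means half reach 75% but not the mean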;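 further: 0% = cytokine-treated negative control wells and 100% = positive control rescue; higher means more ATP so stronger rescue from cytokine killing; wells of about 40 µL received 100 nL stock; the first replicate is given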
Beta2AR agonist: human beta-2 adrenergic receptor agonism by FAP. P07550. Am2.2-beta2AR cells, FAP receptor internalization, flow cytometry; reference of the scale not given here. response, % (test concentration not listed). 340,000 compounds, 0.43% hits;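 active means response above a set limit, near 3 SD of response in nonfluorescent compounds, cut at about 42% in these data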;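 further: stock transfer was 100 nL into about 11 µL; a reference agonist was the positive control; negative values mostly stem from fluorescent compounds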
Target sequence (P07550 whole entry, looked up): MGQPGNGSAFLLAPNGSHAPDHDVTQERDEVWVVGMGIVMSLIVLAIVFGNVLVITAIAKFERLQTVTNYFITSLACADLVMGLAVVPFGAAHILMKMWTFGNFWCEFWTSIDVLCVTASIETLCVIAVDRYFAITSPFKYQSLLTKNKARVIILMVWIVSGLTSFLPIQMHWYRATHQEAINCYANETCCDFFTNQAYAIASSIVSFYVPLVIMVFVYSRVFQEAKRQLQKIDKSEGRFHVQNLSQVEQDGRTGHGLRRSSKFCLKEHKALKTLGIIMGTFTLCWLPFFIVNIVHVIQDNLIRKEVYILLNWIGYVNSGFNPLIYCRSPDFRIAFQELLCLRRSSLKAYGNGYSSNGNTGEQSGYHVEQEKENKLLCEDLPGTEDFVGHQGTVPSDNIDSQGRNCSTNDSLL
ALR H2O2 inh: blocks human ALR sulfhydryl oxidase activity; purified ALR, DTT oxidation, H2O2 HRP-luminol luminescence; 290,000 compounds, 3.8% hits; inhibition, % (test concentration not listed); AID 485317; P55789;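 active means mean and each replicate at 75% or more; inconclusive means only one of the two met; inactive means neither met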;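 further: stock transfer was 7.5 nL into about 7.5 µL; 0% = neutral wells and 100% = wells with inactivated enzyme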
Target sequence (P55789 whole entry, looked up): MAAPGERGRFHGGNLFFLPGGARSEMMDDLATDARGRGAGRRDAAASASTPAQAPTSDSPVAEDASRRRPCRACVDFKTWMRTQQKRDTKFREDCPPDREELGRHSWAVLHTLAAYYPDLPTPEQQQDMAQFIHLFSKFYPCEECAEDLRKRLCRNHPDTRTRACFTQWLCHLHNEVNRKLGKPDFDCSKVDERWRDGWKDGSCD
T cruzi repl: blocks replication of Trypanosoma cruzi | T. cruzi beta-gal in NIH3T3, luminescence, 90 h | 300,000 compounds, 1.4% hits | inhibition, % (no concentration beside the values) | AID 1885;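 active means mean inhibition across valid replicates above about 55%, limit read from the data; inconclusive means mean below that limit but half or more replicates reach it; inactive means mean below it, under half of replicates reach it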;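 further: signal also drops with host cell toxicity which is not excluded here; 0% = plate median of DMSO wells and 100% = zero luminescence signal; higher percent means less beta-gal luminescence so fewer parasites; stock transfer was 50 nL into about 50 µL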
Ecoli rRNA inh: inhibitors of bacterial rRNA selective over humanized ribosomes. GFP signal change (wild-type ribosome), % (concentration not given with the values). E. coli WT GFP vs humanized-ribosome RFP mutants, fluorescence, 24 h; active compounds read low; DMSO median 0, no signal -100. 350,000 compounds, 1.6% hits;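 active means significant combined selectivity score with lowered wild-type GFP, culture density cut under 30%, mutant RFP and density less affected; inactive means any of these conditions unmet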; further: one replicate is shown; some compounds called inactive have numbers as strong as hits
A1 inh: inhibitors of the anti-apoptotic protein A1, read as caspase activation. MEF A1-2A-BIM cells, Caspase-Glo 3/7 luminescence, 3 h; percent of clofoctol response, vehicle zero. caspase activation, % (test concentration not listed). 330,000 compounds, 0.066% hits;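 active means over half of replicate activation scores above 10%, or exactly half above 10 with the replicate mean above 10; inconclusive means replicate mean below 10 yet half the replicates above 10; inactive means over half of replicates below 10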;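 further: wells of about 30 µL received 50 nL stock; many hits fall short of the cut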
LANA-H2B inh: blocks KSHV LANA binding to histone H2A/H2B; 320,000 compounds, 0.6% hits; Q9QR71; cell-free LANA-H2A/H2B peptide, fluorescence polarization; inhibition, % (test concentration not listed); AID 2629; in the data active means inhibition mostly above about 10%, no sharp cut-off; inactive means mostly below about 6.7%;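 further: stock transfer was 7.5 nL into about 10 µL; 0% = median of vehicle wells and 100% = median of positive control wells; one replicate is shown; the record names a cut of 25% in any replicate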
Ecoli rRNA inh OD600: recorded beside Ecoli rRNA inh, whose call it bears; OD600 change, %; measured here: OD600 growth;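 optical density of the mix in the first replicate; 0 = DMSO median and -100 = no signal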
Ecoli rRNA inh RFP: also measured in Ecoli rRNA inh; calls as there; RFP signal change, %; measured here: RFP humanized mutant strains;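 first replicate; 0 = DMSO median and -100 = no signal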
An asterisk follows results filed as active; u = inconclusive; x = not tested or not shown.

SMILES	Calb FLC	Beta cell apopt	Beta2AR agonist	ALR H2O2 inh	T cruzi repl	Ecoli rRNA inh	Ecoli rRNA inh OD600	Ecoli rRNA inh RFP	A1 inh	LANA-H2B inh
O=C(NC1CC1)c1sc2cc(Cl)ccc2c1Cl	-1	x	-2	0	-5	-3	4	-2.9	-9.1	3.1
O=C(CSc1oc(-c2ccccc2)nc1S(=O)(=O)c1ccc(F)cc1)NCC1CCCO1 (configuration not stated)	-15	-2	-3	-7	15	x	x	x	0.0	-1.7
O=C(c1ccc(F)cc1)[C@@H]1[C@@H](C(=O)c2ccccc2)[C@@]2(C(=O)Nc3ccccc32)[C@H]2c3ccccc3C=CN12	19	-1	x	x	-6	x	x	x	0.4	-2.3
O=C(O)CC(CN1C(=O)c2ccccc2C1=O)c1ccccc1 (configuration not stated)	-6	-2	6	-4	-17	-3	3	-2.2	0.1	2.7
CC(C)(C)OC(=O)NC(CC(=O)OCc1ccccc1)C(=O)O (configuration not stated)	-5	-4	-1	-18	0	6	18	1.8	-0.2	-2.1
CCOC(=O)C1=C(CN2CCN(C(=O)OCC)CC2)NC(=O)NC1c1ccc2c(c1)OCO2 (configuration not stated)	-30	-1	2	-11	4	13	7	-0.1	-0.5	-0.7
O=C(NNC1=NS(=O)(=O)c2ccccc21)c1ccc([N+](=O)[O-])cc1	-6	x	0	9	-8	8	4	-2.2	-2.3	-2.9
C(=N\n1cnnc1SCc1ccccc1)/c1ccco1	6	-5	-20	-8	-13	x	x	x	-0.1	2.7
Cc1onc(-c2ccccc2)c1C(=O)N(C)CC(=O)Nc1ccc(F)c(F)c1F	x	-2	10	-1	x	-8	6	2.1	1.2	1.2
COc1cccc(C2=NOC(C(=O)N3CCN(C(=O)c4ccco4)CC3)C2)c1 (configuration not stated)	-3	0	-7	-9	-3	-1	2	0.7	0.2	3.1
O=C(Nc1ccc(C(=O)O)cc1)/C(=C/c1ccc2c(c1)OCO2)NC(=O)c1cccc(Br)c1	-2	6	4	6	-3	-4	5	-2.8	-1.9	-2.1
O=C(Cc1ccc(Cl)cc1)N1CCc2ccccc2C1	-3	-1	8	x	3	-28*	-20*	-0.2*	0.3	20*

An excerpt of these results, with two lines to a compound:
The line under a structure holds: Calb FLC | Beta cell apopt | Beta2AR agonist | ALR H2O2 inh | T cruzi repl | Ecoli rRNA inh | Ecoli rRNA inh OD600 | Ecoli rRNA inh RFP | A1 inh | LANA-H2B inh
O=C(NC1CC1)c1sc2cc(Cl)ccc2c1Cl
 : -1 | x | -2 | 0 | -5 | -3 | 4 | -2.9 | -9.1 | 3.1
O=C(CSc1oc(-c2ccccc2)nc1S(=O)(=O)c1ccc(F)cc1)NCC1CCCO1 (configuration not stated)
 : -15 | -2 | -3 | -7 | 15 | x | x | x | 0.0 | -1.7
O=C(c1ccc(F)cc1)[C@@H]1[C@@H](C(=O)c2ccccc2)[C@@]2(C(=O)Nc3ccccc32)[C@H]2c3ccccc3C=CN12
 : 19 | -1 | x | x | -6 | x | x | x | 0.4 | -2.3
O=C(O)CC(CN1C(=O)c2ccccc2C1=O)c1ccccc1 (configuration not stated)
 : -6 | -2 | 6 | -4 | -17 | -3 | 3 | -2.2 | 0.1 | 2.7
CC(C)(C)OC(=O)NC(CC(=O)OCc1ccccc1)C(=O)O (configuration not stated)
 : -5 | -4 | -1 | -18 | 0 | 6 | 18 | 1.8 | -0.2 | -2.1
CCOC(=O)C1=C(CN2CCN(C(=O)OCC)CC2)NC(=O)NC1c1ccc2c(c1)OCO2 (configuration not stated)
 : -30 | -1 | 2 | -11 | 4 | 13 | 7 | -0.1 | -0.5 | -0.7
O=C(NNC1=NS(=O)(=O)c2ccccc21)c1ccc([N+](=O)[O-])cc1
 : -6 | x | 0 | 9 | -8 | 8 | 4 | -2.2 | -2.3 | -2.9
C(=N\n1cnnc1SCc1ccccc1)/c1ccco1
 : 6 | -5 | -20 | -8 | -13 | x | x | x | -0.1 | 2.7
Cc1onc(-c2ccccc2)c1C(=O)N(C)CC(=O)Nc1ccc(F)c(F)c1F
 : x | -2 | 10 | -1 | x | -8 | 6 | 2.1 | 1.2 | 1.2
COc1cccc(C2=NOC(C(=O)N3CCN(C(=O)c4ccco4)CC3)C2)c1 (configuration not stated)
 : -3 | 0 | -7 | -9 | -3 | -1 | 2 | 0.7 | 0.2 | 3.1

Later entries:
SMILES	Calb FLC	Beta cell apopt	Beta2AR agonist	ALR H2O2 inh	T cruzi repl	Ecoli rRNA inh	Ecoli rRNA inh OD600	Ecoli rRNA inh RFP	A1 inh	LANA-H2B inh
COc1ccc(/C=N/NC(=O)c2cc3c(ccc4ccccc43)o2)cc1OC	-6	15	5	-13	x	-37	-67	11	0.2	3.8
Cc1ccc(NC(=O)COC(=O)C2=COCCO2)cc1	2	-7	-3	-12	-3	x	x	x	0.7	-1.3
CC(C)c1ccc(NC2CCCN(C(=O)c3cnsn3)C2)cc1 (configuration not stated)	8	-3	-4	96*	2	-12	-26	-2.2	-0.3	-2.9
CCCN1CCN(C(=O)Cn2nc(CC)n3c(cc4sccc43)c2=O)CC1	4	3	-15	-3	-9	11	16	-3.1	0.8	1.5
O=C(CN1CCOCC1)Nc1ccc(NC(=O)CN2CCOCC2)c(Cl)c1	-1	1	13	-9	-1	x	x	x	-0.6	-1.1
Cc1cc(C)c2nc(-c3cccnc3)cc(C(=O)Nc3ccc(S(=O)(=O)Nc4onc(C)c4C)cc3)c2c1	3	2	-11	53	3	-3	-1	2.8	-0.8	-4.5
NS(=O)(=O)c1ccc(NC(=O)c2c(F)cccc2Cl)cc1	-11	-2	13	-11	-15	4	7	-1.2	0.7	-0.7
Cc1cc(S(=O)(=O)Nc2nc(CN3CCOCC3)nc3sc4c(c23)CCC4)ccc1F	x	27	13	23	x	-1	2	5.4	0.5	1.7
CC(=O)N1CCc2cc(Br)cc(S(=O)(=O)N3CCc4ccccc43)c21	-3	1	-11	-7	10	9	5	2.3	-0.1	1.8
COc1cc(C(=O)Nc2ccc3c(c2)nc(C)n3C)cc(OC)c1OC	-5	8	-6	x	3	1	-6	-3.1	-0.7	0.1
C(=C\CSc1ncn[nH]1)/CSc1ncn[nH]1	-7	-11	8	-5	-4	x	x	x	0.0	8.1
CC1(C)CNc2cc([N+](=O)[O-])ccc2S1	-19	-2	-6	73	7	-25	-26	1.9	-0.3	0.2
CC(=O)N(CCC(c1ccco1)C(C)C)Cc1ccc(OC(C)C)cc1 (configuration not stated)	-13	1	-2	1	x	-16	-20	-4.1	-0.3	0.4
CSc1nc(-c2ccccc2)nc(N)c1C(C)=O	15	-1	x	x	-1	x	x	x	0.2	2.1
CCC1=C2CC[C@H]3C(=O)N(C)C(=O)[C@H]3[C@H]2[C@@]2(Cc3ccccc3)C(=NCC(=O)OC)OC(=O)N2C1=O	1	0	1	x	-7	5	1	-4.1	0.0	-7.1
COc1ccc2c(C)cc(Sc3nnnn3-c3ccccc3)nc2c1	44	-2	-12	55	0	x	x	x	-0.8	-12
COCCCNC(=S)NNC(=S)Nc1cccc(Cl)c1	3	-10	4	78*	-6	-16	-8	-1.8	-0.8	-1.7
COc1ccc(Oc2nc3c(c(=O)n(C)c(=O)n3C)n2Cc2cccc(OC)c2)cc1	5	-6	-14	-4	9	x	x	x	1.3	2.2
CC(=O)c1c(C)[nH]c(C(=O)CSc2nnc(-c3ccco3)o2)c1C	16	-1	-13	9	-10	5	11	11	-0.3	-2.6
Cc1ccc(NC(=O)CSc2nnc(-c3cccnc3)s2)cc1	-1	6	-9	-1	-7	x	x	x	-0.3	5.0
O=C(NCCNC(=O)c1cc(F)cc(F)c1)c1cc(F)cc(F)c1	x	2	-6	-31	-11	15	21	0.9	-0.3	1.3
COCCN(C(=O)COC(=O)c1ccccc1NCc1ccco1)c1c(N)n(Cc2ccccc2)c(=O)[nH]c1=O	-1	-2	3	-10	-6	-7	-19	2.1	0.0	6.6
CC(=O)n1cc([C@H]2C=C(C(N)=O)O[C@@H](OCc3ccc(CO)cc3)C2)c2ccccc21	-3	9	-4	-30	u	x	x	x	-0.5	-3.0
Cc1ccc(S(=O)(=O)NC(=O)c2cccc(C)c2)cc1	-11	6	-4	4	-9	10	6	-4.0	0.2	-7.4
COc1ccc(NC(=O)c2cccc([N+](=O)[O-])c2)cc1	-8	3	-13	8	5	21	17	4.1	-6.8	-5.0
COc1ccc(/C=C\C(=O)Oc2cccc(/C=N/NC(=O)Cc3ccc(OC)c(OC)c3)c2)cc1	-5	-2	5	2	-23	x	x	x	-5.2	-1.7
NC(=O)NC(=O)CSc1nc2cc([N+](=O)[O-])ccc2n1-c1cccc(C(F)(F)F)c1	27	6	-2	x	8	0	-3	2.3	0.4	1.9
N#CC(C#N)=C1C=CC=CN1/C(=C\c1ccco1)C(=O)c1ccc(-c2ccccc2)cc1	x	16	18	22	x	x	x	x	0.6	-5.8
COc1ccc(C(=O)N/C(=C/c2cccs2)C(=O)NCCCn2ccnc2)cc1OC	-8	-6	-7	-6	-14	x	x	x	1.5	1.8
Cc1ccc(OCCC(=O)OCC(=O)NC(=O)NC2CCCCC2)cc1	3	-4	-5	23	-19	2	-3	1.2	1.1	-0.4
Cn1cc([N+](=O)[O-])c(C(=O)NCc2cc3ccccc3[nH]2)n1	-7	-11	-6	1	0	x	x	x	-0.1	-6.8
Cc1ccc(NS(=O)(=O)c2ccc(C(=O)N3CCCN(C)CC3)cc2)cc1	6	-2	11	x	4	x	x	x	1.2	4.2
COc1ccc(OC)c(NC(=O)c2cccnc2Sc2cc(C)ccc2C)c1	4	-3	-3	-20	7	x	x	x	0.5	-6.0
COc1cccc(-c2sc3ccc(OC)cc3c2C#CCC(C)O)c1 (configuration not stated)	x	-3	10	-1	x	-20	-38	31	-0.9	2.9
COc1ccccc1NS(=O)(=O)c1ccc(C(=O)NCC(c2ccccc2OC)N(C)C)cc1 (configuration not stated)	0	3	9	-8	5	11	8	0.1	0.0	4.6
CCN(CC)CCC(c1ccc(N(C)C)cc1)c1c(OC)cc(OC)c2c(-c3ccccc3)cc(=O)oc12 (configuration not stated)	x	1	6	x	x	5	-16	21	0.1	-0.9
CC(=O)c1cccc(NC(=O)Nc2nc(C)cc(C)n2)c1	6	7	-4	4	-13	3	9	1.0	-1.8	-3.0
Cc1ccc(S(=O)(=O)NN2C(=O)c3ccccc3NC2c2ccccn2)cc1 (configuration not stated)	19	-5	1	-4	3	-2	-2	-7.3	-0.5	-7.4
Cc1cc(C)c(C2=CSC3=NS(=O)(=O)CCN23)c(C)c1	-11	-8	-1	-4	22	7	-2	-6.5	1.0	1.3

Individual results from the results shown.
Reading for CC(C)c1ccc(NC2CCCN(C(=O)c3cnsn3)C2)cc1 (configuration not stated) under Ecoli rRNA inh RFP: -2.2
Reading for CC(=O)N(CCC(c1ccco1)C(C)C)Cc1ccc(OC(C)C)cc1 (configuration not stated) under ALR H2O2 inh: 1

Source: PubChem BioAssay

Not all compounds are listed, so the mix of outcomes need not match the whole.
